Screening results from PubChem.
T cruzi repl: T. cruzi replication inhibition | inhibition, % (test concentration not listed) | 300,000 tested, 1.4% active | AID 1885 | T. cruzi beta-gal in NIH3T3, luminescence, 90 h;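 active = mean inhibition across valid replicates above about 55%, limit read from the data; inconclusive = mean below that limit but half or more replicates reach it; inactive = mean below it, under half of replicates reach it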;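 also: signal also drops with host cell toxicity which is not excluded here; 0% = plate median of DMSO wells and 100% = zero luminescence signal; higher percent means less beta-gal luminescence so fewer parasites; stock transfer was 50 nL into about 50 µL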
AF4-AF9 inh: inhibitors of human MLL-AF4/AF9 interaction; P42568; AlphaScreen, biotin-AF4 peptide binding to FLAG-AF9; inhibition, % at 10 µM; 350,000 tested, 0.47% active;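 active = every replicate reaching a set inhibition limit, whatever the replicate mean, cut at about 25% in these data; inconclusive = mean inhibition reaches that limit but some replicates miss it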;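 also: 0% = plate neutral control median and 100% = total signal loss; the record names both 10 and 1 µM as test concentration; the first replicate is given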
Target sequence (P42568 whole entry, looked up): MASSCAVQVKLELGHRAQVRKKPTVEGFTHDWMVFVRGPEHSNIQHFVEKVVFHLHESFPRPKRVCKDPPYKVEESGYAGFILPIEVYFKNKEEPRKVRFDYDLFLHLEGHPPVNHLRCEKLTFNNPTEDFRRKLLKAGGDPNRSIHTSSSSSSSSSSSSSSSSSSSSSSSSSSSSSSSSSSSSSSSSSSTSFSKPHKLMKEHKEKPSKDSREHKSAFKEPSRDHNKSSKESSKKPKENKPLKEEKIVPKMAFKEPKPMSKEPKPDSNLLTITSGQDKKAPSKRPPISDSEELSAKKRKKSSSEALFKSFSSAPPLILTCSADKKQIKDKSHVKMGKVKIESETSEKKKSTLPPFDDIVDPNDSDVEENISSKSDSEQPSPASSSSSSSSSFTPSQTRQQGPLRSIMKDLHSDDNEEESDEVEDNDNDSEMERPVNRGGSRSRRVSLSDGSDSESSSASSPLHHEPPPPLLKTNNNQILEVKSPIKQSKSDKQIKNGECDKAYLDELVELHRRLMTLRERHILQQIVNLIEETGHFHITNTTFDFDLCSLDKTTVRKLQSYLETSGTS
Calb FLC: C. albicans growth modulation with fluconazole; C. albicans CaCi-2 (fluconazole-resistant clinical isolate) + fluconazole, Alamar Blue growth, 48 h; growth inhibition, % (test concentration not listed); 300,000 tested, 0.57% active; AID 1979;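 active = most replicates above 75%; inconclusive = exactly half above 75%; inactive = most below 75%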;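 also: all wells also contain fluconazole at 8 µg/ml as a sub-toxic cotreatment; 0% = median of DMSO wells and 100% = median of geldanamycin control wells; wells of about 8 µL received 7.5 nL stock; the first replicate is given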
FGF22 binding: shifts melting point of recombinant human FGF22; recombinant FGF22 thermal shift, SYPRO orange fluorescence; percent of sucrose octasulfate shift, DMSO zero; calls only at 9.99 µM; 340,000 tested, 1.5% active;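 active = melting point raised past a set limit in the mean and every replicate; inconclusive = no clear call; three in four hits are not shown here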
Target sequence (Q9HCT0 whole entry, looked up): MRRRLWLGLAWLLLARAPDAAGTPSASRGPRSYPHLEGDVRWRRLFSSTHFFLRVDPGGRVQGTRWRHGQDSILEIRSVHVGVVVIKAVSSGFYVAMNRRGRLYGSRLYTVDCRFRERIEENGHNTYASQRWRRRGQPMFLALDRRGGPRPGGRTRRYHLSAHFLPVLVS
Beta cell apopt: beta cell apoptosis inhibition; INS-1E cytokine-induced death, ATP luminescence, 48 h; percent of positive-control rescue, neutral wells zero; protection from apoptosis, % (concentration not given with the values); 300,000 tested, 0.8% active; AID 435005;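 active = all replicates at 75% or more, or half of them and the mean; inconclusive = half reach 75% but not the mean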;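 also: 0% = cytokine-treated negative control wells and 100% = positive control rescue; higher means more ATP so stronger rescue from cytokine killing; wells of about 40 µL received 100 nL stock; the first replicate is given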
RanGTP-Impb inh: inhibitors of RanGTP-importin-beta interaction, primary screen, biochemical, FRET, CFP-Ran, YFP-importin-beta, homogeneous. 300,000 tested, 1.1% active. cell-free CFP-Ran/YFP-importin-beta FRET ratio. inhibition, % (concentration not given with the values);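 active = most replicates above 15%; inconclusive = exactly half above 15%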;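 also: 0% = DMSO wells and 100% = Ran loaded with GDP instead of GTP; wells of about 40 µL received 100 nL stock; the first replicate is given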
rRNA inh HTS: selective bacterial rRNA inhibition in E. coli. E. coli WT GFP vs humanized-ribosome RFP mutants, fluorescence, 24 h; stronger effect = lower value; DMSO median 0, no signal -100. GFP signal change (wild-type ribosome), % (concentration not given with the values). 350,000 tested, 1.6% active. AID 720706;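 active = significant combined selectivity score with lowered wild-type GFP, culture density cut under 30%, mutant RFP and density less affected; inactive = any of these conditions unmet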; also: one replicate is shown; some compounds called inactive have numbers as strong as hits
ALR H2O2 inh: blocks human ALR sulfhydryl oxidase activity; P55789; purified ALR, DTT oxidation, H2O2 HRP-luminol luminescence; inhibition, % (no concentration beside the values); 290,000 tested, 3.8% active; AID 485317;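 active = mean and each replicate at 75% or more; inconclusive = only one of the two met; inactive = neither met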;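 also: stock transfer was 7.5 nL into about 7.5 µL; 0% = neutral wells and 100% = wells with inactivated enzyme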
Target sequence (P55789 whole entry, looked up): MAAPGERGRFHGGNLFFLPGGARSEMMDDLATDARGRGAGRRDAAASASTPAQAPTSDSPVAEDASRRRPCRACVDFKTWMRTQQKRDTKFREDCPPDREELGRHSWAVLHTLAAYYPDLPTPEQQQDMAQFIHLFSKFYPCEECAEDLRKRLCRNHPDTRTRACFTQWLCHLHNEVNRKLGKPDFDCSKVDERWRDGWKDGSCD
rRNA inh HTS OD600: recorded beside rRNA inh HTS, whose call it bears; OD600 change, %; measured here: OD600 growth;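 optical density of the mix in the first replicate; 0 = DMSO median and -100 = no signal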
rRNA inh HTS RFP: further read-out of rRNA inh HTS, marked with its call; RFP signal change, %; measured here: RFP humanized mutant strains;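 first replicate; 0 = DMSO median and -100 = no signal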
* hit, by the source's call; i = inactive; ? = inconclusive; · = not tested or not shown; + = active, no number. Not all compounds are listed, so the mix of outcomes need not match the whole.

Values run as follows: T cruzi repl | AF4-AF9 inh | Calb FLC | FGF22 binding | Beta cell apopt | RanGTP-Impb inh | rRNA inh HTS | rRNA inh HTS OD600 | rRNA inh HTS RFP | ALR H2O2 inh
O=C1Nc2ccccc2C1=Nc1ccc(Cl)cc1
→ -5 | -0.9 | -25 | i | -1 | -1.3 | 5 | 7 | -2.8 | 37
CSCCC(C(=O)O)N1C(=O)c2ccc(C(=O)O)cc2C1=O (centres undefined)
→ 4 | · | 4 | · | -2 | 10 | · | · | · | 9
O=C(CNC(=O)c1cccc(F)c1)N/N=C/c1cccnc1
→ -3 | 2.2 | 30 | i | -4 | 2.4 | 2 | 4 | 1.2 | 1
O=C(Nc1cccc(NC(=O)C2CC3CCCC(C2)C3=O)n1)C1CC2CCCC(C1)C2=O (centres undefined)
→ -8 | · | 9 | · | · | 3.6 | · | · | · | -2
COc1cccc(NC(=O)Cc2cccs2)c1
→ · | · | -1 | · | -2 | -2.8 | · | · | · | -14
Cc1ccc(S(=O)(=O)N2CCOCC2)cc1NC(=O)COC(=O)CNC(=O)c1ccc(Oc2ccccc2)cc1
→ -1 | -14 | 1 | i | · | -0.8 | -5 | -9 | -2.6 | -16
c1ccc(CSCc2cn3ccccc3n2)cc1
→ 0 | 0.3 | -15 | i | 1 | -0.7 | -2 | -14 | -0.5 | -2
O=S(=O)(Nc1ccc(C(F)(F)F)cn1)c1ccccc1
→ 11 | 2.1 | 3 | i | -1 | 2.6 | 20 | 6 | 6.8 | -4
C/C(=N\OCC(=O)OCC(=O)Nc1cc(S(C)(=O)=O)ccc1Cl)c1ccc2c(c1)OCO2
→ · | 2.1 | · | i | -5 | · | · | · | · | 1
CN(C)C1=NCCN1CC1CCCCC1
→ · | · | · | i | 0 | · | 8 | 15 | -1.6 | 6
CCCCCN1C=CC=C/C1=C\C=C(C#N)C#N
→ 10 | · | 4 | i | 10 | -0.6 | -2 | -12 | 0.8 | 99*
COC(=O)C1=COC(C)C2CN3CCc4c([nH]c5ccccc45)C3CC12 (centres undefined)
→ -17 | 12 | -3 | i | · | 122* | · | · | · | -6
O=C(CNC(=O)c1ccc(Cl)cc1)NC(CO)c1ccccc1 (centres undefined)
→ -8 | -1.3 | -3 | i | -1 | -3.0 | 8 | 17 | 1.7 | -8
NCCNC(=O)Cn1c(=O)c2c3c(sc2n(Cc2ccccc2)c1=O)CCCC3
→ 5 | 1.7 | 7 | i | 5 | 2.5 | -9 | 1 | 8.1 | ·
CC(C)CNC(=O)CCCc1ccccc1
→ 4 | · | -9 | · | · | 1.8 | · | · | · | -18
CNC(=O)c1cccc(NC(=O)c2ccccc2OCc2ccccc2)c1
→ 4 | -0.9 | -2 | i | -10 | 1.4 | 25 | 11 | 3.4 | -1
CCCN(CC1CC1)c1nc(N)c(C#N)c(CC#N)c1C#N
→ 7 | · | -2 | · | -8 | 13 | · | · | · | ·
CCOc1ccc(N(CC(=O)NCc2ccc3c(c2)OCO3)C(=O)c2csnn2)cc1
→ -4 | -1.8 | -12 | i | -2 | -0.8 | 0 | -7 | -0.6 | -11
O=C(Nc1nc2ccccc2s1)C1CC(=O)N(c2ccccc2)C1 (centres undefined)
→ -1 | · | ? | · | -3 | 2.6 | · | · | · | -6
COc1ccc(OC)c(C(C(=O)NCc2ccco2)N(C(=O)Cn2nnc3ccccc32)C(C)C)c1 (centres undefined)
→ -3 | · | -7 | · | 1 | 4.7 | · | · | · | 1
S=C(NCCN1CCOCC1)Nc1ccccc1Cl
→ -10 | 2.6 | 3 | i | 1 | 0.0 | 16 | 4 | -1.8 | -15
C(=N\n1cnnc1)/c1cccs1
→ 2 | · | -2 | · | -7 | 11 | 3 | 2 | 3.2 | -1
COc1ccc(OC)c(-c2csc(N(C)C(=O)c3ccco3)n2)c1
→ 0 | -2.1 | 1 | i | -9 | -2.0 | 10 | 13 | -0.3 | -8
COc1ccc(NC(=O)C2CCCN(C(=O)c3ccc(Cl)cc3)C2)cc1Cl (centres undefined)
→ · | 0.8 | · | i | 3 | · | -8 | -20 | -3.0 | 2
COc1ccc2[nH]c(=O)c(CNc3cccc(C)c3)cc2c1
→ 22 | · | -3 | · | -4 | -17 | · | · | · | -22
O=C(O)CSc1nc2ccccc2nc1Cc1ccccc1F
→ -10 | -2.7 | -6 | i | 7 | 3.0 | -6 | -14 | -11 | 21
COc1ccc(S(=O)(=O)N2CCN(C(=O)CN3C(=O)NC(C)(c4ccc5ccccc5c4)C3=O)CC2)cc1 (centres undefined)
→ 12 | 0.8 | 10 | i | 10 | -0.4 | 3 | 1 | 4.8 | -3
Clc1ccccc1-c1nc2nc3ccccc3nc2n1-c1ccc2c(c1)OCO2
→ 20 | 0.2 | 34 | i | 2 | 2.3 | -26* | -19* | -8.2* | ·
Cc1cccc(C)c1NC(=O)CN(C)C(=O)c1cc([N+](=O)[O-])ccc1N1CCOCC1
→ 7 | 1.0 | -5 | i | -1 | 0.4 | 5 | 7 | 1.1 | 3
COc1ccc(CN(C)C(=O)COC(=O)c2cc([N+](=O)[O-])ccc2N2CCCC2)c(OC)c1OC
→ · | 14 | · | i | 8 | · | -14 | -16 | 11 | 2
Cn1cccc1CC(=O)N/N=C/C=C/c1ccccc1
→ -10 | 2.7 | -6 | i | -5 | 1.6 | 5 | 10 | 1.8 | 18
O=C1CC(C(=O)N2CCc3ccccc32)CN1c1ccc(F)cc1 (centres undefined)
→ 0 | -6.8 | 4 | i | -5 | 3.4 | 4 | 5 | -1.3 | ·
Nc1nnc(CCCCCc2nnc(N)s2)s1
→ 2 | 0.1 | -10 | i | -1 | -0.1 | 13 | 12 | 3.4 | -9
COC(=O)c1ccc(C2C(C(=O)c3cc4ccccc4o3)=C(O)C(=O)N2c2cc(C)on2)cc1 (centres undefined)
→ -35 | 3.3 | 0 | i | -5 | -33 | -2 | 4 | 3.7 | 19
NS(=O)(=O)c1ccc(NC(=O)C(Sc2ccccc2)c2ccccc2)cc1 (centres undefined)
→ -12 | 1.3 | -5 | + | -4 | 7.5 | -50 | -49 | -7.4 | -4
Cc1cc(C)n2nc(-c3sccc3-n3cccc3)cc2n1
→ 10 | · | 5 | · | -1 | 3.5 | · | · | · | -7
COc1ccc(-n2c(-c3ccc(Cl)cc3)c[n+]3c2CCc2ccccc2-3)cc1
→ 74* | 3.4 | 108* | i | 110* | 1.5 | -59 | -81 | -22 | -2
O=C(CN1Cc2ccccc2C1=O)Nc1ccc2c(c1)OCCO2
→ -18 | -2.4 | 11 | i | -7 | 5.3 | 1 | 6 | -1.9 | -4
CC(=O)N[C@@H]1[C@@H](O)[C@@H]2OC(c3ccccc3)OC[C@H]2O[C@@H]1N=[N+]=[N-] (some centres undefined)
→ -10 | -1.2 | 4 | i | · | 6.6 | 2 | 9 | 1.2 | -3
Cc1cc(C)c2[nH]c(=O)c(C(c3nnnn3Cc3ccc4c(c3)OCO4)N3CCCC3)cc2c1 (centres undefined)
→ 2 | · | 12 | · | -3 | 0.2 | · | · | · | 23
Clc1ccc(Cn2ccc(C3CC3)n2)cc1
→ -6 | -0.6 | 14 | i | 3 | 3.2 | 3 | 1 | 1.9 | ·
COc1ccc(OC)c(NC(=O)C2CC(=O)N(c3ccc(Br)cc3)C2)c1 (centres undefined)
→ -10 | · | -6 | · | 6 | 2.0 | · | · | · | -7
O=C(NC1CC2CCC(C1)N2Cc1ccccc1)c1ccccc1Cl (centres undefined)
→ 9 | -2.9 | -8 | i | -3 | -1.3 | 2 | 8 | -1.5 | -5
Cc1ccc(C(=O)NCC(=O)O)o1
→ -5 | -10 | -3 | i | -2 | -0.7 | 11 | 16 | 0.2 | -4
CCN1C(=O)[C@H]2[C@@H](c3ccc(C)cc3)N3C(=O)N(c4cccc(Cl)c4)C(=O)[C@@]3(Cc3ccc(Cl)cc3)[C@H]2C1=O
→ · | -14 | · | i | 4 | · | 8 | 1 | -2.5 | ·
CCn1c(COc2ccccc2C(N)=O)nc2ccccc21
→ -7 | · | -3 | · | -1 | -0.2 | · | · | · | -9
COc1ccc(C(=O)OCC(=O)Nc2c(C)cccc2C)cc1
→ -10 | -0.2 | 2 | i | · | 3.4 | 7 | 10 | -1.7 | -2
COc1ccc(O[C@H]2C=C[C@@H](c3ccccc3)O[C@@H]2CO/N=C(\C)CCC(=O)OC[C@H]2O[C@H](c3ccccc3)C=C[C@@H]2Oc2ccc(OC)cc2)cc1
→ 5 | · | 0 | · | 1 | 6.5 | · | · | · | -13
O=C(c1ccc2c(c1)CCN2S(=O)(=O)c1ccccc1)N1CCN(c2ccccc2F)CC1
→ 6 | -1.0 | 3 | i | · | -1.8 | -22* | -17* | -2.5* | -11
COc1ccc(NC(=O)C2CCN(S(=O)(=O)c3cccnc3)CC2)cc1Cl
→ -10 | 1.5 | -3 | i | -4 | ? | 2 | -1 | -1.2 | ·
COc1coc(C(O)C[N+](=O)[O-])cc1=O (centres undefined)
→ -17 | -2.9 | ? | · | -14 | ? | 8 | 10 | 1.6 | -2
COCCCN1C(=O)C(=O)/C(=C(/O)c2ccc(S(=O)(=O)N3CCOCC3)cc2)C1c1ccc(C(C)C)cc1 (centres undefined)
→ -4 | 2.3 | -4 | i | -9 | 6.1 | 4 | 6 | -1.8 | 3
CCC1(C)CC(=O)N(c2ccc(F)c(Cl)c2)C(=O)C1
→ -3 | -1.4 | -4 | i | 3 | -0.6 | 2 | 5 | -0.3 | 0
CN(NC(=O)Nc1ccccc1)c1cnn(C)c(=O)c1Cl
→ · | · | 3 | i | · | 3.0 | 13 | 7 | -0.6 | 4
CCOc1ccccc1OCC(=O)Nc1ccccc1C(=O)NC1CC1
→ 3 | -22 | 2 | i | -2 | -4.0 | 1 | 2 | -1.6 | 21
O=c1[nH]nc(Cc2ccc(-c3ccccc3Cl)o2)c2ccccc12
→ -1 | · | 2 | · | 0 | 0.3 | · | · | · | -11
CCOc1ccc(Nc2nc(N)c([N+](=O)[O-])c(N3CCOCC3)n2)cc1
→ -12 | -1.6 | 26 | i | -2 | -1.1 | 20 | 21 | -1.3 | 0
CCCNC(=S)NNC(=O)c1cccs1
→ -29 | -1.0 | 1 | i | -2 | -1.2 | 2 | 0 | 1.6 | 12
CCOc1ccc(N2CC(C(=O)NCc3ccco3)CC2=O)cc1 (centres undefined)
→ -6 | -4.3 | 8 | i | -2 | 1.2 | 10 | 11 | -0.6 | -7
COc1cc(OC)c2c(-c3ccccc3)cc(=O)oc2c1C(CCN1CCCC1)c1ccc2c(c1)OCO2 (centres undefined)
→ 32 | 29* | -18 | i | 3 | -1.6 | 8 | 0 | 7.7 | -17
